Screening data as filed in PubChem BioAssay.
RE007 growth inh = less growth of the S. pombe RE007 Vpr strain | S. pombe RE007 Vpr strain, BacTiter-Glo ATP luminescence, 24 h; control for the full effect not named in the record | Potency, µM (series often up to 92.2 µM), inactives show top-dose activity change, negative = less growth | 0.21% of 360,000 active; active = well fitted falling curve with a large enough effect; inconclusive = small, poorly fitted or top-dose-only effect; inactive = no such curve, though single readings can be large or run the other way;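 further: on the % scale 0 is the no-effect control and ±100 the full control effect; nearly all actives have a fitted effect of over 50% in size; the assay follows cell death caused by Vpr and the record does not say whether a fall means rescue or toxicity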
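Fission yeast strain RE007, carrying one chromosomally integrated HIV-1 vpr copy, was seeded at OD 0.01 in PMG+AL medium with 23 nL pinned compound. After 24 h at 30 °C and 99% humidity, viability was read by BacTiter-Glo luminescence.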
SARS PLP yeast = inhibitors of SARS-CoV papain-like protease in yeast; Potency, µM (titrated, usually from 32.9 µM), without a hit: top-dose activity, positive = growth rescue; S. cerevisiae expressing SARS-CoV PLpro, growth rescue; control for the full effect not named in the record; 0.19% of 330,000 active; active means well fitted rising curve with a large enough effect; inconclusive means small, poorly fitted or top-dose-only effect; inactive means no such curve, though single readings can be large or run the other way; further: 0% is about no effect; nearly all actives have a fitted effect of over 55% in size; growth read by luminescence after 48 h
MARV entry inh = Marburg virus entry inhibition. Marburg virus pseudotyped entry inhibition, cell reporter; control for the full effect not named in the record; about a third of the inactives were read at about 46 µM. Potency, µM (titrated, usually from 37.8 µM), for inactives: top-dose activity change, negative = inhibition, actives largely listed as inhibitors. 1.8% of 300,000 active; active = well fitted inhibition curve with a large enough effect; inconclusive = small, poorly fitted or top-dose-only effect, or effect the other way; inactive = flat fitted curve, though single readings scatter; tested in HEK293 cells; about a fifth of its hits are not listed in these tables; further: on the % scale 0 is the no-effect control and ±100 the full control effect; luciferase read-out
Lassa entry inh = Lassa virus entry inhibition; Lassa virus pseudotype entry inhibition, cell reporter; control for the full effect not named in the record; 1.2% of 300,000 active; Potency, µM (doses to about 37.9 µM), without a hit: at the highest dose activity change, negative = inhibition, most hits filed as inhibitors; active means well fitted inhibition curve with a large enough effect; inconclusive means small, poorly fitted or top-dose-only effect, or effect the other way; inactive means flat fitted curve, though single readings scatter; tested in HEK293 cells; further: on the % scale 0 is the no-effect control and ±100 the full control effect; nearly all actives have a fitted effect of over 50% in size; luciferase read-out
Cruzain inh noDet = blocks cruzain activity in detergent-free assay | 2.3% of 200,000 active | P25779 | AID 1476 | Potency, µM, inactives show max response, negative = inhibition, usual class: inhibitors | purified cruzain, Z-FR-AMC fluorescence, no detergent;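 further: plate controls were enzyme without inhibitor for no effect and buffer without enzyme for full effect; nearly all actives have a fitted effect of over 40% in size; top concentration of the series not given in the record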
Target sequence (P25779 123-467 limits assumed): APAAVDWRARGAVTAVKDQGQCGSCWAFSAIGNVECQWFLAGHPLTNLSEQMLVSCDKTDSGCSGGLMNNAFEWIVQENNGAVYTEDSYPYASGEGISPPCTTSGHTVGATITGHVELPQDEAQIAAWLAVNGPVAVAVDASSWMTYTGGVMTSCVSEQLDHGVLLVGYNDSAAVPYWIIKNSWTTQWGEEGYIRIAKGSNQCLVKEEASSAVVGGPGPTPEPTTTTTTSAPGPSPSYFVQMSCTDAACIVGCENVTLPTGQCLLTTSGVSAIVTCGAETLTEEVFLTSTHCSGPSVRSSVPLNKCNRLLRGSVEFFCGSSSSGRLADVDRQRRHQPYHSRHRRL
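Detergent-free condition (0.00005% Triton X-100) in acetate buffer pH 5.5 with DTT. 1.5 nM enzyme and compound were pre-mixed 15 min, then 2 uM Z-FR-AMC substrate added; reaction progress from fluorescence change between first and third reads (60 s).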
NS1 function inh = blocks influenza NS1 protein function; S. cerevisiae slowed by influenza A NS1, growth recovery by OD600; Potency, µM (series often up to 46.1 µM), for the others: at the top dose activity, positive = more growth; 0.4% of 270,000 active; AID 2326; active means well fitted rising curve with a large enough effect; inconclusive means small, poorly fitted or top-dose-only effect; inactive means no such curve, though single readings can be large or run the other way; further: nearly all actives have a fitted effect of over 50% in size
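Recovery from NS1-induced slow growth read by OD600 in budding yeast switched to galactose assay medium (pH 6.0, -URA) at 1:100 dilution. Compound 23 nl per well; the matching strain lacking NS1 serves as control.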
2A StopGo = lowers the luciferase signal of an FMDV 2A StopGo reporter; human cells with a luciferase reporter of 2A StopGo recoding; control for the full effect not named in the record; Potency, µM (top dose mostly 57.9 µM), for inactives: at the top dose signal change, negative = less light; 1.2% of 410,000 active; active = well fitted falling curve with a large enough effect; inconclusive = small, poorly fitted or top-dose-only effect; inactive = no such curve, though single readings can be large or run the other way; tested in HEK293T cells; further: on the % scale 0 is the no-effect control and ±100 the full control effect; nearly all actives have a fitted effect of over 45% in size; luciferase light after 4 h
Cruzain Triton = inhibitors of Trypanosoma cruzi cruzain with detergent. P25779. purified cruzain, Z-FR-AMC fluorescence, 0.01% Triton. Potency, µM, for inactives: max response, negative = inhibition, hits mostly inhibitors. 0.43% of 200,000 active. AID 1478;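 further: plate controls were neutral wells for no effect and buffer without enzyme for full effect; nearly all actives have a fitted effect of over 40% in size; top concentration of the series not given in the record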
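In this qHTS format, compounds are incubated with 1.5 nM cruzain for 15 min at room temperature before 2 uM Z-FR-AMC is added. Release of AMC is followed at 360/450 nm, and progress is taken as the 60 s fluorescence difference.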
Numbers without * were called inactive; ? = inconclusive; / = no result given; & = joins results of further samples; [ ] = dose if it differs, or a comment. Unless noted, the call rests on the fitted dose curve; in most records, active means well fitted curve in the direction sought with a large enough effect; inconclusive means small, poorly fitted or top-dose-only effect, or another doubt; inactive means no such curve, though single readings can be large; an effect the other way counts as inactive or inconclusive. Potency means the concentration at half of the fitted maximal effect.

Sequence of screens – RE007 growth inh, SARS PLP yeast, MARV entry inh, Lassa entry inh, Cruzain inh noDet, NS1 function inh, 2A StopGo, Cruzain Triton
1: CSc1nc(C)nc2c1c(=O)n(C)c(=O)n2C
→ -10%, -8%, /, /, -9%, 6%, 0%, -4.5%
2: C#CCOC(=O)C[N+](C)(C)C/C=C/c1ccccc1
→ -10%, 0%, -8%[14.2 µM], -6%, /, 4%, 0%, /
3: Cc1ccc(C)c(NC(=O)CSc2nnc(NC(=O)Nc3ccccc3)s2)c1
→ /, /, /, 4%[46.1 µM], -6%, /, -2%, 0.9%
4: CCCCN(C(=O)c1ccncc1)c1c(N)n(CCC)c(=O)[nH]c1=O
→ -15%, -1%, 13%, -1%, /, /, -4%, /
5: COc1cccc(/C=C/C(=C2/C(=O)N(c3ccccc3)N=C2C)c2ccccc2)c1OC
→ 0%, 18%, -32%, 1%, -15%, 25%, -20%, -3.5%
6: O=C(N1CCOCC1)N1CCN(S(=O)(=O)N2CCOCC2)CC1
→ 3%, 3%, ?, 2%, -3%, 8%, -22%, 4.3%
7: Cc1cc(C(C)(C)C)cc(C)c1CC1=NCCN1
→ 1%, -1%, 7.9µM*, ?, 4%&5%&-7%&2%, -1%&-15%, -21%&-8%, 1.8%&6.1%&0.8%&3.0%
8: COCCNC(=O)c1cn(C)c(=O)c2cc(OC)c(OC)cc12
→ 14%, 11%, 19%, 1%, -6%, -3%, -12%, -2.1%
9: CC1CN(S(=O)(=O)c2cccc(C(=O)OCc3cc(=O)oc4cc(O)ccc34)c2)CC(C)O1 (stereo not drawn)
→ 3%, -2%, ?, ?, ?, -16%, 22µM*, -7.0%
10: CCOC(=O)c1[nH]cnc1C(=O)O
→ 3%, 3%, -7%, 1%, 3%, -2%, -11%, 8.7%
11: O=C1c2cccc3cccc(c23)C(=O)N1CCN1CCN(CC(O)COc2ccccc2)CC1 (stereo not drawn)
→ 5%, -16%, 1%, -6%, -2%, 12%, 8%, -7.7%
12: O=C1N/C(=N/NC(=O)c2cccc3ccccc23)S/C1=C\c1ccccc1OCc1ccccc1
→ 15%, 17%, ?, -25%, ?, 5%, -23%, -10%
13: O=C(O)c1c(CNCc2cccc(F)c2)c2ccccc2n1Cc1ccccc1
→ /, /, /, -16%[46.1 µM], 0%, /, 25%, -1.6%
14: CCOc1ccc(NC(=O)CN2CCN(S(=O)(=O)c3ccc(Cl)cc3)CC2)cc1
→ -6%, 0%, 3%[46.1 µM], -8%, 19%, -24%, -18%, -5.7%
15: CCOc1cc(C(=O)NCc2ccc3c(c2)OCO3)cc(OCC)c1OCC
→ -3%, -3%, -4%[46.1 µM], 5%[46.1 µM], /, -2%, -5%, /
16: Cc1nc(N=Nc2cc(S(=O)(=O)O)c3cc([N+](=O)[O-])cc(S(=O)(=O)O)c3c2)c(COP(=O)(O)O)c(C=O)c1O
→ /, /, 20µM*, ?, -8%&2%, -6%, -23%&6%, -17%&-0.6%
17: CSc1ccccc1C(=O)C1CCCN(Cc2ccccn2)C1 (stereo not drawn)
→ -5%, 0%, -19%[46.1 µM], -13%[46.1 µM], /, 0%, -15%, /
18: CCOc1cc(CN2CCC(CO)(Cc3cccc(C(F)(F)F)c3)CC2)ccc1OC
→ -8%, 0%, 4.5µM*, -22%[46.1 µM], /, -1%, -6%, /
19: CCN1C(=O)C(NC(C)=O)c2cc(OC)ccc21 (stereo not drawn)
→ 16%, -1%, 8%, 4%, -2%, 14%, -11%, 3.8%
20: O=C(c1ccccc1)C(CCc1ccccn1)CCc1ccccn1
→ -11%, /, ?, 17%, /, /, 40%[activator], /
21: Cc1ccc(CSCC(=O)N2CCN(c3ccccc3F)CC2)cc1
→ /, /, /, 5%[46.1 µM], -16%, /, 1%, 0.8%
22: CC(C)n1c2ccccc2c2nc3ccccc3nc21
→ -27%, -11%, ?, 2%, 3%, -81%, -28%, -7.8%
23: CC(C)(C)c1cc(C(=S)N2CCCC2)cc(C(C)(C)C)c1O
→ -3%, -7%, /, /, /, -39%, -2%, /
24: Cn1c(C(=O)N2CCN(c3nc4ccccc4s3)CC2)cc2sccc21
→ 11%, 3%, -28%, -1%, -22%, -7%, ?, -16%
25: N#Cc1c(-c2ccccc2)nc(SCc2cccc(Cl)c2)[nH]c1=O
→ 22%, 0%, 31%, 1%, /, 3%, -11%, /
26: CC(=O)NC12CC3CC(C1)CC(C(=O)Nc1nc4ccc(F)cc4s1)(C3)C2
→ -10%, 2%, -9%[46.1 µM], ?, /, 10%, -18%, /
27: CCOc1ccc(CCNC(=O)CCNC(=O)c2ccccc2Cl)cc1OCC
→ 5%, -3%, -22%[46.1 µM], -6%[46.1 µM], /, 11%, 6%, /
28: Cc1ccc2c(c1)N(C(=O)CCC(=O)NC1CCCCCC1)CCO2
→ 23%, 4%, /, /, /, -17%, -17%, /
29: CN(C)c1ccc(NC(=O)C2(c3cccs3)CCOCC2)cc1
→ /, /, /, 3%[46.1 µM], -5%, /, 19%, -0.5%
30: CCOc1ccc(-n2ccnc2SCC(=O)Nc2nc3ccc(C)cc3s2)cc1
→ /, /, /, -29%[46.1 µM], ?, /, -20%, -0.3%
31: CCN(CC)C(=O)C(=O)Nc1cccc(Br)c1
→ 5%, -1%, /, /, /, -2%, 66%[activator], /
32: Cc1cc(C)nc(/N=C(\N)N(Cc2ccccc2)Cc2ccccc2)n1
→ -13%, 0%, ?, ?, /, -6%, ?, /
33: CCN1CCN(S(=O)(=O)c2ccc3ccccc3c2)CC1
→ -9%, 1%, -2%, 3%, 7%, -4%, 3%, 2.0%
34: COc1cccc(CCNC(=O)CC2C(=O)NCCN2CC(C)(C)C)c1 (stereo not drawn)
→ 9%, 1%, 15%[46.1 µM], 2%[46.1 µM], /, 0%, -9%, /
35: O=C(O)C1CCCCC1C(=O)Nc1cccc(Cl)c1Cl (stereo not drawn)
→ -13%, -12%, 10%, 3%, -9%, -2%, -16%, 0.6%
36: Cc1ccc(NC(=O)COC(=O)Cn2cnc3c2c(=O)n(C)c(=O)n3C)cc1
→ -15%, 8%, 0%[46.1 µM], -7%[46.1 µM], /, /, 2%, /
37: COc1ccc(N(C(=O)CCl)C(C(=O)NCCc2ccccc2)c2cccs2)cc1Cl (stereo not drawn)
→ -24%, -54%, ?, 26µM*, -14%, -18%, 20µM*, -1.6%
38: CN(C)S(=O)(=O)c1ccc(C(=O)Nc2ccc(-n3nncc3-c3ccccc3)cc2)cc1
→ /, /, /, ?, -16%, /, -19%, -0.3%
39: COc1ccc(CNC(=O)CCNS(=O)(=O)c2cccc3nsnc23)cc1
→ 19%, 3%, 2%&0%[46.1 µM], 0%, 1%, /, 0%&-3%, -1.3%
40: Clc1ccc(-c2ccc(SCc3ccccn3)nn2)cc1
→ 0%, -1%, -2%, 14%, -9%, -9%, 50%[activator], 6.7%
41: Cc1ccccc1CN1C(=O)C(O)(c2c[nH]c3ccccc23)c2cc(Cl)ccc21 (stereo not drawn)
→ /, /, 8.9µM*, ?, 1%, /, -24%, -13%
42: Cc1ccc(/C=N/NC(=O)c2nnn(-c3nonc3N)c2CNc2ccccc2)cc1
→ -9%, -2%, /, /, /, 10%, -6%, /
43: O=C(Oc1ccc(C(=S)N2CCOCC2)cc1)c1ccccc1
→ 12%, -3%, ?, 8%[46.1 µM], /, /, -3%, /
44: CC(C)Oc1ccc(C(CCN)C2CCCCC2)cc1 (stereo not drawn)
→ 7%, 1%, ?, ?, /, 10%, -25%, /
45: Cc1ccc(-n2ncc3c(N4CCCCC4)ncnc32)cc1Cl
→ /, /, /, ?, -8%, /, 25µM*, 0.4%
46: CCOC(=O)C1(CCCc2ccccc2)CCN(S(C)(=O)=O)CC1
→ 0%, 0%, -11%[46.1 µM], -5%[46.1 µM], /, -28%, -23%, /
47: CCOc1ccc(C(=S)N2CCOCC2)cc1OC
→ 0%, 8%, -1%, 17%, -8%, -3%, -7%, -0.9%
48: O=C(CNC(=O)c1cccc(S(=O)(=O)N2CCc3ccccc32)c1)Nc1ccccc1Br
→ -16%, /, ?, ?, /, /, 52%[activator], /
49: COc1ccc(CNC(=O)COC(=O)c2ccc3ccccc3n2)cc1
→ 33%, -2%, ?, 8%, /, /, -7%, /
50: Cc1sc2ncnc(NCCCO)c2c1C
→ -2%, -1%, /, /, -5%, -6%, -2%, -1.9%
51: O=C(Cc1ccccc1)Nc1nnc(-c2ccco2)o1
→ -23%, 2%, 12%[46.1 µM], -2%, /, /, 24%, /
52: Cc1cc(C)cc(N2C(=O)CSC23C(=O)N(CC(=O)NCCc2ccccc2)c2ccccc23)c1 (stereo not drawn)
→ /, /, /, -4%[46.1 µM], 16%, /, -3%, 0.5%
53: COC(=O)c1ccc(CNC(=O)CCC(=O)N2CCOCC2)cc1
→ -1%, 0%, 12%[46.1 µM], -4%[46.1 µM], /, /, -1%, /
54: CC(C)c1ccc(/C=C/c2[nH]c(=O)[nH]c(=O)c2[N+](=O)[O-])cc1
→ 8%, 3%, /, /, /, -15%, -26%, /
55: O=C(OCC1CCCO1)c1ccc2c(c1)N(Cc1ccccc1Cl)C(=O)c1ccccc1S2(=O)=O (stereo not drawn)
→ /, /, /, 6%[46.1 µM], -29%, /, 5%, 1.2%
56: Cc1csc(NC(=O)CSc2nnc(CCNC(=O)c3ccc(Cl)c(Cl)c3)n2C)n1
→ 3%, -10%, 19%, 11%, -4%, -3%, 16%, 7.9%
57: Cc1ccc(-n2nc(C)c3c(C)c(CCC(=O)NCc4ccco4)c(C)nc32)cc1
→ 0%, -8%, /, /, 17%, 0%, -26%, -12%
58: O=C(CCNC(=O)N1CC(=O)Nc2ccccc21)NCc1cccc(Cl)c1
→ 0%, 8%, /, /, /, 0%, -7%, /
59: O=C1CC(C(F)(F)C(F)(F)C(F)(F)F)=Nc2ccccc2N1
→ 15%, -5%, 7%, -6%, 0%, 14%, -17%, -6.4%
60: CCCNC(=O)c1cc(S(=O)(=O)N2CCc3ccccc32)cn1C
→ -13%, 1%, /, /, /, 8%, ?, /
